Assay outcomes from PubChem BioAssay.
Rango dissoc inh: prevents RanGTP from dissociating the Rango-importin beta complex. O95149+P62826. Biochemical FRET Rango-importin beta, RanGTP-induced dissociation. Potency, µM (titrated, usually from 46.1 µM), inactives show at the top dose activity change, negative = inhibition. 0.071% of 340,000 active; active means falling FRET ratio curve, often poorly fitted, with flat reads before Ran was added; inconclusive means other falling curves, or compound fluorescence or quenching; inactive means flat or rising ratio curve;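 also: potency is read from the fitted curve at half-maximal effect; % of control where 0% means no effect; nearly all actives have a fitted effect of over 45% in size; -100% = wells without RanGTP and RCC1; the record marks most hits as doubtful in a second field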
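Rango (0.1 uM)–importin beta (0.25 uM) complex; RanGTP-RCC1 trigger; 45 min RT; CFP/YFP FRET read.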
GLA inh pH 4.5: alpha-galactosidase A (human) inhibition, pH 4.5. P06280. purified enzyme, 4-MU-alpha-Gal fluorescence, pH 4.5. activity change, negative = inhibition, % at 105 µM. 230,000 tested, under 10 active. AID 1467; inconclusive = small, poorly fitted or top-dose-only inhibition, or a rising curve; inactive = flat fitted curve, though single readings scatter; no compound was filed as active;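 also: 0% = full activity with enzyme and -100% = basal without enzyme; dose as in the result columns while the protocol names 77 µM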
Rango complex inh: Rango-importin beta binding inhibition | Q14974 | Rango CFP/YFP FRET sensor + importin beta, 45 min | Potency, µM (titrated, usually from 92.2 µM), inactives show at the top dose inhibition of complex formation | 0.031% of 340,000 active | AID 540263; active = rising FRET ratio curve, often small or poorly fitted; inconclusive = mostly compound fluorescence or quenching in the first reads; inactive = flat curves in all reads;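 also: potency is read from the fitted curve at half-maximal effect; 0% = DMSO wells and 100% = buffer wells lacking importin beta; nearly all actives have a fitted effect of over 15% in size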
Target sequence (Q14974 whole entry, looked up): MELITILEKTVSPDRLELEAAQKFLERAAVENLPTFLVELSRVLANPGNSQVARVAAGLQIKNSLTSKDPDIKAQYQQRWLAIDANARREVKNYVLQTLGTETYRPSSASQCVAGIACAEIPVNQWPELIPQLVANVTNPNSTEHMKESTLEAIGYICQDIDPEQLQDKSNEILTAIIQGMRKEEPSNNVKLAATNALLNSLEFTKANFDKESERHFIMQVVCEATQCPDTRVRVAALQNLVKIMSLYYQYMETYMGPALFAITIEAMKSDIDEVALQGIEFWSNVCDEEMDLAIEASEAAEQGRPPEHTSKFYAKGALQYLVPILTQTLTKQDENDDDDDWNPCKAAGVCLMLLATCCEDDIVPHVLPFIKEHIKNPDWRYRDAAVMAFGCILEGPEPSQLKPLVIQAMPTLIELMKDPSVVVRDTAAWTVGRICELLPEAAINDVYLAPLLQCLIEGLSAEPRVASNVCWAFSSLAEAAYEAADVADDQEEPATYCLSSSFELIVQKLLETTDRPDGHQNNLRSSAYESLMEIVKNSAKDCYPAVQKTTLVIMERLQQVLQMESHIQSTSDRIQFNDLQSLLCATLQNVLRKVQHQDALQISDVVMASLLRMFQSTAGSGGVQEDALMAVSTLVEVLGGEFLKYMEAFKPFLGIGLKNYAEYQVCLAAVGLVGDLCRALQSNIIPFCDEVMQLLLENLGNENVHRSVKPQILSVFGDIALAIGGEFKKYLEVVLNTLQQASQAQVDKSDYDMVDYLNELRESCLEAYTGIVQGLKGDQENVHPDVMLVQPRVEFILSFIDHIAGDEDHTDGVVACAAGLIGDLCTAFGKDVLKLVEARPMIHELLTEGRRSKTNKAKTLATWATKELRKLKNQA
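FRET biosensor Rango (snurportin 1 IBB between N-terminal EYFP and C-terminal Cerulean), 50 nM in PBS/1 mM DTT/0.02% Tween-20/0.1% BSA, preincubated 5 min RT with compound; 0.125 microM importin beta added, 45 min RT, CFP/YFP FRET ratio read.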
miR-21 reporter: miR-21 reporter, rising signal; 340,000 tested, under 10 active; AID 2288; Potency, µM (series often up to 38.3 µM), for the others: at the highest dose reporter change, positive = more light; HeLa miR-21 FLuc reporter, luciferase, 48 h; active = well fitted rising curve with a large enough effect; inconclusive = small, poorly fitted or top-dose-only effect; inactive = no such curve, though single readings can be large or run the other way;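 also: % of control where 0% means no effect; miR-21 action dims this reporter so a rising signal means less miR-21 action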
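Using DMEM plus 10% FBS, HeLa miR-21-FLuc cells are incubated with test compounds (final up to about 40uM) for 48 hours; firefly luciferase signal is then imaged following reagent-mediated lysis.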
An asterisk follows results filed as active; ? = inconclusive; . = no result given; & = joins results of further samples; [ ] = remark or other dose. An excerpt; rates above refer to the full screens.

SMILES	Rango dissoc inh	GLA inh pH 4.5	Rango complex inh	miR-21 reporter
COc1cccc(C2C(C(C)=O)=C(O)C(=O)N2Cc2ccco2)c1 (stereo unspecified)	0.2%	-3.3	0.9%	-7.2%
CN(C(=O)COC(=O)CCCc1c[nH]c2ccccc12)c1c(N)n(Cc2ccccc2)c(=O)[nH]c1=O	-11.7%	.	3.0%	.
CC(=O)c1ccc(N(CC(=O)Nc2cc(C)on2)S(=O)(=O)c2ccc(C)cc2)cc1	1.4%	.	-3.9%	.
CCOC(=O)NC(=O)CSc1nnnn1-c1ccccc1	6.5%	0.6	-3.9%	-2.0%
COc1ccc(OC)c(NC(=O)CSc2nc3[nH]c(=O)cc(O)c3s2)c1	-13.3%	.	2.0%	.
O=C(N/N=C\c1ccc(S(=O)(=O)O)o1)c1ccc2c(c1)OCO2	-7.3%	.	-3.8%	-3.0%
Cc1ccc(C(=O)Nc2cccc(N3C(=O)C4CCC(C)CC4C3=O)c2)cc1 (stereo unspecified)	-2.7%	.	0.5%	-9.0%
O=C(COc1ccccc1)NCCn1ccc2ccccc21	-6.8%	-13.9	0.8%	-17.2%
CCN(CC)C(=O)CSC1=C(C#N)C(c2cccs2)C=C(C)N1 (stereo unspecified)	-13.8%	0.2	0.7%	-13.5%
O=C(NC1CCCCC1)c1ccc(S(=O)(=O)c2ccccc2Cl)c([N+](=O)[O-])c1	.	0.1	.	-12.2%
O=C(Nc1cccc(F)c1)c1cc(S(=O)(=O)N2CCOCC2)ccc1N1CCCC1	18.6%	.	0.8%	.
COc1ccc(CCNC(=O)C2CCN(Cc3nc(-c4ccccc4F)oc3C)CC2)cc1OC	4.2%	-3.3	-0.6%	-2.2%
COc1ccc(C2C(Oc3ccccc3)C(=O)N2c2cc(C)ccc2C)cc1OC (stereo unspecified)	1.0%	-6.0	-0.8%	3.1%
O=C(NCc1cccs1)C1CCN(S(=O)(=O)N2CCCC2)CC1	8.1%	3.7	-3.9%	-4.2%
CSc1cccc(NC(=S)N(CCCN2CCCC(C)C2)Cc2cccs2)c1 (stereo unspecified)	0.3%	-13.3	3.4%	3.1%
Cc1cc(Cl)ccc1OCCCC(=O)N1CCOCC1	-0.1%	-0.7	4.0%	-57.0%
CCN1CCN(CC(O)COC(c2ccccc2)c2ccccc2C)CC1 (stereo unspecified)	-5.2%	.	0.0%	-3.4%
CC(=O)Nc1ccc(/C=N/NS(=O)(=O)c2cc(C)ccc2C)cc1	3.7%	2.4	0.1%	-1.9%
Cc1coc2c(C)c3oc(=O)c(CCC(=O)NCCCN4CCCC4=O)c(C)c3cc12	-17.5%	.	4.6%	-4.7%
CC(Nc1nc(-c2ccccc2O)nc2ccccc12)c1ccccc1 (stereo unspecified)	13.3%	-14.3	?	14.7%
O=C(Nc1nnc(S(=O)(=O)N2CCCCC2)s1)c1cccc(Br)c1	1.7%	.	-0.3%	-3.8%
S=C1NCCc2ccc(Cl)cc2C1c1ccccc1 (stereo unspecified)	?	-2.9	0.0%	-0.8%
Cc1ccc(NC(=O)CSc2nnc(-c3cccnc3)o2)c(C)c1	-0.3%	.	0.1%	.
CCOC(=O)Cn1nc(C(F)F)c(Br)c1C	5.5%	4.5	-2.2%	-0.4%
O=C(/C=C/c1ccccc1)N1CCOCC1	2.0%	.	-0.4%	-18.8%
Other entries follow.
SMILES	Rango dissoc inh	GLA inh pH 4.5	Rango complex inh	miR-21 reporter
COc1cc(O)oc1C=Nc1ccc(Cl)cc1	?	-0.5	-2.8%	-14.1%
CCOc1ccc(Nc2nc(NCCN3CCOCC3)nc(OC)n2)cc1	8.3%	-17.6	0.5%	7.9%
O=C1N2CCSC2=NC1(NS(=O)(=O)c1ccccc1)C(F)(F)F (stereo unspecified)	-6.2%	-2.9	3.3%	-1.4%
Cc1cc(OCC(=O)NNC(=S)NC(=O)c2cccs2)ccc1Cl	10.9%	.	7.6%	-3.3%
COc1ccc(-c2cc(N3C(=O)Nc4ccccc4N3O)n[nH]2)cc1	22.1%	-4.6	-1.1%	0.9%
Cc1ccc(NC(=O)CSc2nc3ccccc3c3nc4ccccc4n23)cc1	16.0%	-2.5	0.0%	16.7%
CSc1ccc(/C=N/n2c(COc3ccccc3)n[nH]c2=S)cc1	-4.3%	.	-0.2%	-8.9%
COc1ccc(/C=N/NC(=O)c2cccnc2)cc1CN1CCCc2ccccc21	-13.3%	1.7[21.1 µM]	?	-0.1%
COc1cccc(CN2CCN(CCCc3ccccc3)C(CCO)C2)c1O (stereo unspecified)	-2.6%	.	0.9%	6.4%
O=C(c1cnn2c(C(F)F)cc(-c3ccccc3)nc12)N1CCOCC1	-4.2%	-2.1	1.8%	-8.3%
O=c1nc(-c2ccccc2)c2ccccc2[nH]1	4.4%	4.4	?	-18.3%
CCOC(=O)N1CCC(Nc2c(NCCCN3CCN(C4CCCCC4)CC3)c(=O)c2=O)CC1	1.3%	-0.2	-1.6%	-4.3%
COc1cc(/C=N/n2nnnc2N)ccc1OCc1c(C)no[n+]1[O-]	10.9%	-16.2	3.1%	-10.6%
CCN(CC)S(=O)(=O)c1cc(F)ccc1OC	-6.1%	-6.7	-1.6%	-7.4%
COc1cc(NC(=O)c2cccc(Cl)c2)c(OC)cc1NC(=O)CN1CCCCC1	-21.8%	-0.4	?	3.4%
Cc1ccccc1Nc1c(-c2ccccc2)nc2ncccn12	-22.5%	-4.9	?	-7.2%
CS(=O)(=O)Nc1ccccc1C(=O)OCC(=O)NCc1cccs1	0.7%	.	0.2%	.
CC1CN(S(=O)(=O)c2ccc(Cl)c(S(=O)(=O)N3CC(C)OC(C)C3)c2)CC(C)O1 (stereo unspecified)	10.8%	7.4	6.1%	-1.3%
Cn1ccnc1SCc1cn2ccccc2n1	16.7%	6.2	1.8%	-22.4%
CC(=O)C1=C(C)NC(=O)CC1c1ccc(F)cc1 (stereo unspecified)	-23.0%	4.9	3.2%	0.8%
COC(=O)c1sccc1NC(=O)Nc1ccc(OC)cc1	-9.2%	.	2.6%	-30.5%
COc1cc(CCC(=O)NCc2ccc(F)cc2)cc(OC)c1OC	-3.8%	.	-1.7%	-0.3%
O=C(COC(=O)Cc1c(F)cccc1Cl)NC(=O)c1ccccc1	12.4%	.	-0.9%	0.4%
C/C(=N\NC(=O)CC1N=C(Cc2ccccc2)NNC1=O)c1ccc(C)cc1 (stereo unspecified)	11.2%	10.4	-0.2%	4.9%
CCn1c(SCC(=O)NC(C)c2ccccc2)nc2ccccc21 (stereo unspecified)	-7.6%	-2.4	3.9%	-11.9%
(listing goes on)
SMILES	Rango dissoc inh	GLA inh pH 4.5	Rango complex inh	miR-21 reporter
CCOC(=O)C(Cc1ccccc1)NC(=O)CCc1c(C)nc2nc(C)nn2c1C (stereo unspecified)	-9.5%	-2.5	?	2.5%&-3.4%
Cc1cc2ccccc2nc1Br	4.6%	-0.9	1.1%	-2.8%
Cc1ccc(CN2CC34C=CC(O3)C(C(=O)NCc3ccco3)C4C2=O)cc1 (stereo unspecified)	-5.8%	-5.6	-0.4%	-3.7%
COc1cccc(C(=O)N2CCN(C3CCCCC3)CC2)c1	-17.0%	.	0.0%	0.6%
Cn1c2ccccc2c(=O)c2cc(C#Cc3ccc(N)cc3)ccc21	?	.	?	-41.7%
COc1ccc(NCC(=O)N/N=C/C=C/c2ccccc2[N+](=O)[O-])cc1	-4.5%	-4.7	-2.4%	-1.0%
COc1ccc(OCCSc2nc(N)cc(N)n2)cc1	-5.2%	-9.2	-4.8%	-81.1%
COc1cc(C(=O)N2CCCC(c3nc(-c4cccs4)no3)C2)cc(OC)c1OC (stereo unspecified)	-0.6%	-1.9	-1.8%	-3.8%
Cc1cc(C)cc(NC(=S)N2CC(C)OC(C)C2)c1 (stereo unspecified)	1.7%	.	-2.9%	1.3%
COc1ccc(-c2ccc(-c3nc4ccc(C)cn4c3NC3CCCCC3)cc2OC)cc1	-24.2%	.	?	.
COc1ccc(NC(=O)C2CCCN(S(C)(=O)=O)C2)cc1OC (stereo unspecified)	19.3%	.	-4.0%	-1.2%
CCN(CC)c1ccc(/C=N/NC(=O)c2ccc3nc[nH]c3c2)c(O)c1	?	-14.2	?	?
COc1cccc(CNC(=O)c2ccccc2-c2ccccc2)c1	9.3%	.	1.4%	5.3%
O=C(NC(=S)Nc1ccc(N2CCCCC2)cc1)c1ccco1	-9.5%	0.1	-1.1%	-39.1%
Nc1nc(N)c(N=Nc2ccc(S(N)(=O)=O)cc2)c(=O)[nH]1	-16.6%	-5.1	-0.6%	-2.9%
COc1ccc(CN(Cc2cc3cc(OC)c(OC)cc3[nH]c2=O)C(=O)NC2CCCCC2)cc1	-8.1%	1.9	?	-2.1%
Cc1cccc(NC(=S)N2N=CCC2c2ccccc2)c1 (stereo unspecified)	-21.7%	1.3	0.6%	-49.2%
Brc1ccc(-c2csc(/N=C/N3CCCC3)n2)cc1	24.2%	-2.8	5.4%	-28.5%
O=C(COc1ncnc2ccccc12)Nc1cc([N+](=O)[O-])ccc1Cl	-8.7%	6.7	-1.5%	1.3%
CC(=O)NN=C1CCC(c2ccccc2)CC1 (stereo unspecified)	3.8%	2.3	3.5%	-1.7%
CC1CCCC(=NNc2ccc3ccccc3n2)C1 (stereo unspecified)	-1.4%	.	0.8%	.
COc1ccc(N2CCN(C(c3cccs3)C(C)NC(=O)C(=O)N3CCOCC3)CC2)cc1 (stereo unspecified)	-8.8%	.	-1.3%	-1.7%
COc1cc(/C=C2/C(=N)N3C(c4ccccc4)=CSC3=NC2=O)ccc1OCC(=O)O	?	-7.9	?	-16.3%
Cc1ccccc1CN1CCN(C/C=C/c2ccccc2)CC1	-6.2%	-1.6	0.8%	0.3%
Cc1cccc(C)c1OCc1nc2ccccc2c(=O)n1/N=C/c1ccc(OCC(=O)O)cc1	-1.2%	1.6	0.2%	-29.3%

Part of the list above in order of molecular weight, ascending.
SMILES	Rango dissoc inh	GLA inh pH 4.5	Rango complex inh	miR-21 reporter
Cc1cc(C)cc(NC(=S)N2CC(C)OC(C)C2)c1 (stereo unspecified)	1.7%	.	-2.9%	1.3%
Cc1cccc(NC(=S)N2N=CCC2c2ccccc2)c1 (stereo unspecified)	-21.7%	1.3	0.6%	-49.2%
Cc1cccc(C)c1OCc1nc2ccccc2c(=O)n1/N=C/c1ccc(OCC(=O)O)cc1	-1.2%	1.6	0.2%	-29.3%

The list goes on.
SMILES	Rango dissoc inh	GLA inh pH 4.5	Rango complex inh	miR-21 reporter
Cc1ccc(CN2CCN(Cc3ccccc3C(F)(F)F)CC2)cc1	10.1%	-4.0	2.3%	2.5%
COc1ccc(C(=O)COc2ccccc2C(=O)Nc2ccccc2)cc1	-1.1%	-4.7	0.4%	0.6%
CCc1ccc(N(C2C=CS(=O)(=O)C2)S(=O)(=O)c2ccc(C)cc2)cc1 (stereo unspecified)	-8.2%	-4.4	?	1.3%
COc1cc(OC)cc(C(=O)NC2CCN(Cc3nnnn3Cc3ccc(F)cc3)CC2)c1	-5.5%	-2.7	2.5%	-15.3%
COCc1cc(C)nc2sc(C(=O)N3CCCCC3)c(N)c12	-1.6%	-0.2	?	-3.5%
Cc1nn(CC(C)C)c2sc(C(=O)NC3CC(C)(C)NC(C)(C)C3)cc12	-8.0%	.	-1.8%	-22.0%
CCc1nnc(NC(=O)c2cc(-c3ccccn3)nc3ccc(Br)cc23)s1	-10.0%	.	-0.8%	-3.6%
COc1ccc(CCNC(=O)/C(=C/c2cccnc2)NC(=O)c2ccccc2)cc1	0.2%	2.9	0.5%	0.6%
O=c1[nH]c2ccc(NS(=O)(=O)c3ccc([N+](=O)[O-])cc3)cc2[nH]1	-10.3%	-3.4	0.0%	0.7%
CCOC(=O)COC(=O)c1ccc(O)cc1	7.8%	-4.9	3.1%	-7.7%
CNC(C)c1ccc(S(N)(=O)=O)cc1 (stereo unspecified)	-4.4%	3.5	-3.9%	-0.9%
Cc1nc(Nc2ccc3c(c2)OCCO3)c2oc3ccccc3c2n1	6.0%	-2.4	2.9%	-16.8%
Cc1cc(C)nc(N/N=C/c2cc(C)n(CC(F)(F)F)c2C)n1	-0.8%	2.3	0.8%	20.0%
CCC(c1nnnn1C(C)(C)C)N1CCN(C2CCCC2)CC1 (stereo unspecified)	-4.9%	0.4	2.9%	-8.7%
C=C1CCC[C@]2(C)C[C@H]3OC(=O)C(CNCCN(CC)CC)[C@H]3CC12 (stereo partly specified)	-8.9%	.	-0.6%	2.3%
